Screening data (PubChem BioAssay)
NPYLR7 agonist: mosquito NPYLR7 agonism; HEK293T NPYLR7/Galpha15, GCaMP6s calcium fluorescence; activation, % at 10 µM; 0.15% of 270,000 active; AID 1259423; in the data active = activation above about 40%;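 note: 0% = vehicle and 100% = reference agonist at the receptor; some compounds past the cut are filed as inactive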
NPYLR7 agonist max-min: second read-out of NPYLR7 agonist, no call of its own (marks repeat the call); activation, %; measured here: Max-Min RFU normalised activation; some inactives read as strong as hits;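 span of the calcium signal over five minutes; 0% = vehicle and 100% = native peptide agonist; compound fluorescence can raise it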
* hit, by the source's call; & = joins results of further samples. Not all compounds are listed (hit frequency here may not be typical).

structure,NPYLR7 agonist,NPYLR7 agonist max-min
COc1ccccc1-n1c(C)nnc1SCc1ccc(C(=O)Nc2ccc3c(c2)OCO3)cc1,1.8,12.9
CCCc1cc(=O)[nH]c(SCc2cc(=O)n3ccsc3n2)n1,1.4,7.5
C=CC[C@@H]1CC=C[C@@H](C)N1C(=O)c1occc1C,11.3,5.5
NC(=O)c1noc(CN2C[C@@H]3C4CCC(CC4)[C@@H]3C2)n1,-0.2,-1.4
Cc1oc(-c2ccccc2NC(=O)c2ccsc2)nc1CN(C)Cc1nc2ccccc2n1C,12.8,-1.0
CCN(CC)C(=O)Cn1cc(SCc2ccc(F)cc2)c2ccccc21,-2.8,-6.6
CCOC(=O)C1CCCN(c2oc(-c3ccc(Cl)cc3)nc2C#N)C1 (centres undefined),0.4,-0.8
CC1(C)O[C@@H]2C[C@@](OCc3cccc(C(F)(F)F)c3)(C(=O)NCCN3CCOCC3)CC(OCc3c(F)cccc3F)[C@@H]2O1 (some centres undefined),3.9,3.9
CCOc1ccc(N(CC(=O)Nc2ccc3c(c2)OCO3)S(=O)(=O)c2ccc(SC)cc2)cc1,-12.9,-18.3
CC(CC(=O)NCCS(N)(=O)=O)c1ccccc1Br (centres undefined),2.7,0.7
Cc1ccc(C=Nc2sc3c(c2C(N)=O)CCC3)s1,6.5,4.8
CCC(C)C(NC(=O)Nc1cccc(Br)c1)C(=O)Nc1nnc(-c2ccc(Cl)cc2)s1 (centres undefined),-2.3,-1.8
CCCCn1c(=O)[nH]c(=O)c2c1nc(COC(=O)c1c(C)noc1C)n2CCC,13.8,26.5
COc1ccc2ccc(O)c(CN3CCc4sccc4C3)c2c1,6.1,3.6
O=P1(Nc2ccc(I)cc2)C=C(c2ccccc2)OC(c2ccccc2)=C1,1.5,-0.3
COc1ccccc1C(=O)N(CCN1CCOCC1)Cc1c(-c2ccccc2)noc1N1CCCCC1C (centres undefined),-4.2,5.4
COCC(=O)Nc1ccc(N(C)C)c(CN(Cc2ccco2)C(=O)c2cccs2)c1,27.3,22.8
Cc1cc(C)nc(Nc2cccc(OCc3nc(-c4cccs4)no3)c2)n1,8.8,6.5
CN(C(=O)Nc1ccc(F)c(F)c1F)C1CCC(c2ccccc2)CC1 (centres undefined),2.6,-5.1
Cc1noc(-c2ccc(OC(F)(F)F)cc2)c1C(=O)NCCC#N,28.4,17.2
O=C(CCc1nnc(CCCc2ccccc2)o1)N1CC[C@@H]2CCCC[C@H]2C1,8.7&-6.4,11.8&-8.6
Cc1c(CCNC(=O)c2cccs2)sc2nc(-c3ccc(Cl)cc3)nn12,5.8,3.5
CN(C)CCN(Cc1ccccc1)C(=O)c1cc(-c2ccccc2)nc2cc(-c3ccccc3)nn12,10.2,15.8
COC(=O)c1ccccc1S(=O)(=O)N1CCC(c2cn(C)c3ccc(C)cc23)CC1,23.8,16.7
CN(Cc1ccc2c(c1)OCO2)Cc1cc(-c2ccccc2)no1,10.5,6.8
Cn1nc(C2CCCN(C(=O)c3ccc[nH]c3=O)C2)n(-c2ccccc2)c1=O (centres undefined),-1.4,-7.1
CCNC(=O)C(C)NC(=O)c1ccc(CN2C(=O)c3ccccc3S2(=O)=O)cc1 (centres undefined),-0.1,0.2
COCCn1cc(NC(=O)NC(C)CCc2ccccc2)c2ccccc21 (centres undefined),-2.8,-3.4
O=C(c1cc(=O)c(OCc2ccc(F)cc2)c[nH]1)N1CCN(c2ccccc2)CC1,1.1,-2.5
O=C(Nc1ccc(N2CCCCC2)c(C(=O)NCC2CCCO2)c1)Nc1cccc(Cl)c1Cl (centres undefined),-5.7,-5.9

Full records, looked up by structure. Values in the order: NPYLR7 agonist, NPYLR7 agonist max-min
CCNC(=O)C(C)NC(=O)c1ccc(CN2C(=O)c3ccccc3S2(=O)=O)cc1 (centres undefined) reads -0.1, 0.2
COCCn1cc(NC(=O)NC(C)CCc2ccccc2)c2ccccc21 (centres undefined) reads -2.8, -3.4
O=P1(Nc2ccc(I)cc2)C=C(c2ccccc2)OC(c2ccccc2)=C1 reads 1.5, -0.3
CCOC(=O)C1CCCN(c2oc(-c3ccc(Cl)cc3)nc2C#N)C1 (centres undefined) reads 0.4, -0.8
COc1ccccc1-n1c(C)nnc1SCc1ccc(C(=O)Nc2ccc3c(c2)OCO3)cc1 reads 1.8, 12.9

The list continues.
structure,NPYLR7 agonist,NPYLR7 agonist max-min
CC(=O)N1CCc2c(nc(-c3ccccn3)nc2NCCc2ccc(F)cc2)C1,12.4,10.9
CN1CCC=C(CNS(=O)(=O)c2ccc(C(C)(C)C)cc2)C1,0.7,1.1
Cc1ccc(C2(O)CCN(C(=O)c3cnc(-c4cccnc4)nc3)CC2)nc1,0.9,-6.7
O=C(O)CCC(C(=O)O)N1C(=O)CSC1=S (centres undefined),1.2,-0.6
O=C(OC1(C(=O)Nc2ccccc2)CCCCC1)c1ccccc1,-8.2,-9.9
COc1ccc2c(c1)SC(C)C(=O)N2Cc1cccc(C(F)(F)F)c1 (centres undefined),3.3,1.1
CCC(O)c1nc2ccccc2n1CCCCOc1ccc(OC)cc1 (centres undefined),-0.1,4.7
CC(O)c1cccc(OCc2ccc(S(=O)(=O)C(F)F)cc2)c1 (centres undefined),-2.6,-17.3
Cn1cc(C(=O)NCC(c2ccccc2)c2ccccc2)ccc1=O,1.8,0.0
COc1ccc(-c2cc(N)n(-c3ccc(C(=O)N4CCOCC4)cc3)n2)cc1,5.0,1.3
O=C(O)Cc1nc(-c2cccnc2)n[nH]1,0.1,-1.4
CCOCCCN(CC(=O)N(Cc1cccn1Cc1ccccc1Cl)CC(C)C)C(=O)/C=C/c1ccccc1,-1.8,5.4
COCCN1CCCC(O)(CN(C)Cc2cnccn2)C1=O (centres undefined),3.4,-0.3
Cc1ccc2[nH]cc(C3CCN(S(=O)(=O)c4ccc(C#N)cc4Cl)CC3)c2c1,21.5,32.2
CN(C(=O)c1ccc(CSc2nnc3ccccn23)cc1)C(c1ccccc1)c1ccccc1,-1.8,-8.4
O=[N+]([O-])c1cnc(Nc2cc(Cl)ccc2Cl)c([N+](=O)[O-])c1,5.2,3.4
Nc1cc(N2CCc3[nH]nc(C(c4ccccc4)c4ccccc4)c3C2)ncn1,16.6,8.0
COc1ccc(NC(C)=O)cc1NC(=O)CCc1nc(-c2ccncc2)no1,3.5,1.6
O=C(CCc1ccccc1)Nc1ccc(N2CCCC2)c(C(=O)NCCc2ccccc2)c1,13.4,11.7
CCc1c(C(=O)NC2CC(=O)N(Cc3cccc(F)c3)C2)csc1C (centres undefined),-2.8,-5.0
COCCN1CC2=C(C1=O)C(c1cc(C)c(C)cc1C)NC(=O)N2C (centres undefined),-4.4,-1.9
COCCNC(=S)NN=C1C=C(C)CC1,0.8,0.7
CC(O)CC(C)(C)CNC(=O)NC1CCN(C2CCCC2)C1 (centres undefined),-0.8,-1.8
O=C(NCC1(Cn2cccn2)CC1)c1ccc(C2CCNC2)cc1 (centres undefined),3.8,2.3
CCn1cc(C(=O)N(CC2COc3ccccc3O2)C(C)C)c(C)n1 (centres undefined),5.1,2.5
CC1CN(Cc2nc3sc4c(c3c(=O)[nH]2)CCC4)CC(C)O1 (centres undefined),9.7,9.4
Cc1ccc(C)c(CC(=O)N(C)C(C)c2cccc(O)c2)c1 (centres undefined),-5.9&2.5,-6.8&0.3
CN(CCC(O)c1ccccc1)c1ncc(F)c(N2CCOCC2)n1 (centres undefined),12.7,-2.8
CCOC(=O)c1cc(C2CC2)n(C2CCN(C(=O)COc3ccccc3)CC2)n1,3.4,3.1
CCOC(=O)CN1C(=O)SC(=Cc2cc(Br)c(OCC(=O)OC)c(OC)c2)C1=O,2.1,1.4

Reprinted from the part before: 2 entries, then new ones.
structure,NPYLR7 agonist,NPYLR7 agonist max-min
CCOC(=O)c1cc(C2CC2)n(C2CCN(C(=O)COc3ccccc3)CC2)n1,3.4,3.1
CCOC(=O)CN1C(=O)SC(=Cc2cc(Br)c(OCC(=O)OC)c(OC)c2)C1=O,2.1,1.4
Cc1cc(C)cc(S(=O)(=O)N2CCN(c3ccc(NC(=O)c4ccc(F)cc4)cn3)CC2)c1,26.9,18.4
COCCn1c(SC)nc2c([nH]c3ccccc32)c1=O,16.7,9.4
CN(C)C(=O)c1nn(-c2ccc(F)cc2)cc1Br,6.3,4.2
CC1NC(=O)NC2NC(=O)NC(C)C12 (centres undefined),2.5,-0.7
Cn1c2c(c3ccccc31)C[C@H]1C[C@@H]2[C@@H](Oc2ccccn2)CN1C(=O)C1CCC1,15.1,26.5
COc1ccc(S(=O)(=O)Oc2ccc(CN(C(=O)c3cccc(F)c3)C3CC3)cc2)cc1,2.4,6.7
CN(Cc1ccccc1O)C(=O)C1CSCN1C(=O)c1ccccc1 (centres undefined),-2.6,-2.9
Nc1nc2c(s1)C(c1cccc3c1oc1ccccc13)CC(=O)NC2 (centres undefined),0.5,-0.6
CCN(C(=O)NC(C)C)C(C)CS(=O)(=O)CC (centres undefined),3.5,-1.0
CC(C)NC(=O)N1CCCC(OCc2cc(F)ccc2F)C1 (centres undefined),-4.4,-2.5
Cc1ccc(C(=O)N(C)Cc2ncccc2C)cc1NC(=O)C1CCC1,4.9,4.0
CC(C)OCC(=O)Nc1ccc(N2CCCCC2)c2ccncc12,6.1,5.8
COCCN(Cc1nc(C(=O)N2CCN(c3ccccc3C)CC2)cs1)C(=O)Nc1ccccc1F,13.2,10.2
COc1ccccc1NS(=O)(=O)c1ccc2c(c1)NC(=O)CC(=O)N2,14.6,5.8
C=CCOc1c(Cl)cc(C(=O)NCCc2cnc[nH]2)cc1Cl,-4.4,-2.8
COc1ccc(-c2nc3ccc(C)cn3c2NC(=O)CCCCl)cc1OC,-4.9,-1.2
O=c1[nH]c2ccc(-c3csc(-c4ccco4)n3)cc2[nH]1,1.8,1.9
O=C(/C=C/c1c(F)cccc1F)NCC1CCN(C2CC2)C1 (centres undefined),-2.7,-7.2
Cn1nc(C(=O)NCCc2cccs2)c2ccccc2c1=O,-2.2,-2.7
O=C(CC1C(=O)NCCN1C/C=C/c1ccccc1)NC1Cc2ccccc2C1 (centres undefined),17.0,3.2
O=C(COC(=O)c1ccc(F)cc1[N+](=O)[O-])c1ccc(Br)cc1,3.1,1.2
O=C(CN1C(=O)c2ccccc2C1=O)Nc1ccccc1F,-3.9&1.0,-11.0&3.1
Cc1nc2c(c(NCC3(Cn4cccn4)CC3)n1)CCNC2,33.3,15.2
COc1ccccc1C(C)NC(=O)CSCc1cccc(F)c1 (centres undefined),5.4,-0.5
O=C(CSc1cn(CCNC(=O)c2ccccc2)c2ccccc12)NCc1ccccc1,3.5,2.7
Oc1c(Cl)cc(Cl)c2ccc(N/N=C\c3c(F)cccc3Cl)nc12,-3.8,-8.1
CC(c1ccccc1)N1CCCN(c2ccc(NC(=O)c3ccc(C(F)(F)F)cc3)cc2)C1=O (centres undefined),6.9,3.9
CCN(CC(=O)NC1CCS(=O)(=O)C1)C(=O)CCl (centres undefined),-0.7,-0.8
CC(=O)c1ccc(N2CCN(Cc3ncc(-c4ccccc4)o3)CC2)c(F)c1,0.8,-4.9
CN(C)c1ccc(C(=O)Nc2scnc2-c2ccc(F)cc2)cn1,-3.6,-4.2

New compounds follow:
structure,NPYLR7 agonist,NPYLR7 agonist max-min
CCc1ccc2c(c1)c(=O)c(S(=O)(=O)c1ccccc1)cn2CC,-7.6,-10.1
O=C(CN(C(=O)C12CC3CC(CC(C3)C1)C2)C1CC1)N1CCc2sccc2C1c1ccc(Cl)cc1 (centres undefined),-3.1,-1.8
N#Cc1ccc(C(=O)N2CCCC(C(=O)NCC3CC3)C2)cc1 (centres undefined),1.3,-0.7
CCN1C(=O)NC(c2ccc(Cl)cc2Cl)C2=C1CN(CCC(=O)N1CCN(CCOC)CC1)C2=O (centres undefined),-1.5,2.9
O=C(Nc1cccc2ccccc12)C1=NN(C2CCS(=O)(=O)C2)C(=O)CC1 (centres undefined),3.9,0.5
Brc1ccc(-c2nc(Cc3ccccc3)no2)cc1,-3.7,-6.8
COc1ccc(C2=NN(c3nc(-c4ccccc4)c4cc(C)ccc4n3)C(c3ccccc3)C2)cc1 (centres undefined),-9.3,-14.9
C=C(C)CSc1nnc(N)s1,15.4,16.5
CC(=CC(=O)Nc1ccc(Cl)cc1)Nc1ccc(Br)cc1,-2.5,-2.7
Cc1cc(C)n(-c2ccc(Nc3ccc(NC(=O)Nc4cccc(F)c4)cc3)nn2)n1,-4.4,-11.3
Cc1nc2c(C)cccn2c(=O)c1NC(=O)c1cccc(F)c1,4.1,2.1
O=C(N1CCN(c2nccc(-c3ccco3)n2)CC1)C(F)(F)C(F)F,12.5,11.8
Cc1nnc(CNC(=O)c2ccc3c(c2)ncn3-c2ccccc2)o1,-1.6,-3.1
CCc1nc(C)c(-c2nc(CCc3ccccc3)no2)s1,-7.4,-7.2
